RE007 growth inh: less growth of the S. pombe RE007 Vpr strain; S. pombe RE007 Vpr strain, BacTiter-Glo ATP luminescence, 24 h; control for the full effect not named in the record; Potency, µM (titrated, usually from 92.2 µM), without a hit: top-dose activity change, negative = less growth; 360,000 compounds, 0.21% hits; active = well fitted falling curve with a large enough effect; inconclusive = small, poorly fitted or top-dose-only effect; inactive = no such curve, though single readings can be large or run the other way;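 note: % is set by controls: 0 for no effect and ±100 for the full control effect; nearly all actives have a fitted effect of over 50% in size; the assay follows cell death caused by Vpr and the record does not say whether a fall means rescue or toxicity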
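Fission yeast RE007 carrying one integrated HIV-1 vpr copy, seeded at OD 0.01 in PMG+AL medium with 23 nL pinned compound. Grown 24 h at 30 degrees; viability read by BacTiter-Glo luminescence after 5 min.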
Lassa entry inh: blocks Lassa virus binding to or entry into cells. Lassa virus pseudotype entry inhibition, cell reporter; control for the full effect not named in the record. 300,000 compounds, 1.2% hits. Potency, µM (titrated, usually from 37.9 µM), for inactives: at the top dose activity change, negative = inhibition, hits mostly inhibitors. AID 540256; active means well fitted inhibition curve with a large enough effect; inconclusive means small, poorly fitted or top-dose-only effect, or effect the other way; inactive means flat fitted curve, though single readings scatter; tested in HEK293 cells; note: % is set by controls: 0 for no effect and ±100 for the full control effect; nearly all actives have a fitted effect of over 50% in size; luciferase read-out
SARS PLpro yeast: blocks SARS-CoV papain-like protease in a yeast assay; S. cerevisiae expressing SARS-CoV PLpro, growth rescue; control for the full effect not named in the record; Potency, µM (titrated, usually from 32.9 µM), for inactives: at the highest dose activity, positive = growth rescue; 330,000 compounds, 0.19% hits; AID 485353; note: 0% is about no effect; nearly all actives have a fitted effect of over 55% in size; growth read by luminescence after 48 h
Cruzain inh Det: cruzain (T. cruzi) inhibition with detergent; P25779; 200,000 compounds, 0.43% hits; Potency, µM, without a hit: max response, negative = inhibition, hits mostly inhibitors; purified cruzain, Z-FR-AMC fluorescence, 0.01% Triton; active = well fitted curve in the direction sought with a large enough effect; inconclusive = small, poorly fitted or top-dose-only effect, or another doubt; inactive = no such curve, though single readings can be large; an effect the other way counts as inactive or inconclusive;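 note: plate controls were neutral wells for no effect and buffer without enzyme for full effect; nearly all actives have a fitted effect of over 40% in size; top concentration of the series not given in the record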
Target sequence (P25779 123-467 limits assumed): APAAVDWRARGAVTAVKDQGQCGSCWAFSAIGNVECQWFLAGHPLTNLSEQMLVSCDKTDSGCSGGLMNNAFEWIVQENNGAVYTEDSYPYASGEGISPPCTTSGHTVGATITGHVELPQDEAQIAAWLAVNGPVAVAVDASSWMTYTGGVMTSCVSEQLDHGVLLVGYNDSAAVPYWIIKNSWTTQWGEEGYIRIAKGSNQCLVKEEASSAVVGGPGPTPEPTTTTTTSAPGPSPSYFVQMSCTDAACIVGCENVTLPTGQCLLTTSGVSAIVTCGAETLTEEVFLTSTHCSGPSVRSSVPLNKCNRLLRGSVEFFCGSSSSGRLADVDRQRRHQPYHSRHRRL
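Read-out: AMC fluorescence (360 nm excitation, 450 nm emission), four reads over 2 min, first-to-third difference used. Conditions: cruzain 1.5 nM, Z-FR-AMC 2 uM, pH 5.5 acetate, 5 mM DTT, 0.01% Triton X-100.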
2A StopGo: lowers the luciferase signal of an FMDV 2A StopGo reporter | human cells with a luciferase reporter of 2A StopGo recoding; control for the full effect not named in the record | Potency, µM (series often up to 57.9 µM), inactives show top-dose signal change, negative = less light | 410,000 compounds, 1.2% hits | AID 1159524; active = well fitted falling curve with a large enough effect; inconclusive = small, poorly fitted or top-dose-only effect; inactive = no such curve, though single readings can be large or run the other way; tested in HEK293T cells; note: % is set by controls: 0 for no effect and ±100 for the full control effect; nearly all actives have a fitted effect of over 45% in size; luciferase light after 4 h
Marburg entry inh: inhibitors of Marburg virus binding or cell entry. Marburg virus pseudotyped entry inhibition, cell reporter; control for the full effect not named in the record; about a third of the inactives were read at about 46 µM. Potency, µM (top dose mostly 37.8 µM), for inactives: top-dose activity change, negative = inhibition, actives largely listed as inhibitors. 300,000 compounds, 1.8% hits. AID 540276; active = well fitted inhibition curve with a large enough effect; inconclusive = small, poorly fitted or top-dose-only effect, or effect the other way; inactive = flat fitted curve, though single readings scatter; tested in HEK293 cells; about a fifth of its hits are not listed in these tables; note: % is set by controls: 0 for no effect and ±100 for the full control effect; luciferase read-out
NS1 inh: inhibitors of influenza NS1 protein function; S. cerevisiae slowed by influenza A NS1, growth recovery by OD600; Potency, µM (series often up to 46.1 µM), for the others: at the highest dose activity, positive = more growth; 270,000 compounds, 0.4% hits; AID 2326; note: actives are rising curves; nearly all actives have a fitted effect of over 50% in size
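OD600 was taken as the measure of yeast growth restored by compound in an NS1-expressing S. cerevisiae strain. Cells had been washed out of glucose medium and diluted 1:100 into galactose -URA medium, pH 6.0.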
Cruzain inh noDet: inhibitors of Trypanosoma cruzi cruzain without detergent | Potency, µM, for the others: max response, negative = inhibition, most hits filed as inhibitors | P25779 | purified cruzain, Z-FR-AMC fluorescence, no detergent | 200,000 compounds, 2.3% hits; active = well fitted curve in the direction sought with a large enough effect; inconclusive = small, poorly fitted or top-dose-only effect, or another doubt; inactive = no such curve, though single readings can be large; an effect the other way counts as inactive or inconclusive;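 note: plate controls were enzyme without inhibitor for no effect and buffer without enzyme for full effect; nearly all actives have a fitted effect of over 40% in size; top concentration of the series not given in the record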
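Detergent-free condition (0.00005% Triton X-100) in acetate buffer pH 5.5 with DTT. 1.5 nM enzyme and compound were pre-mixed 15 min, then 2 uM Z-FR-AMC substrate added; reaction progress from fluorescence change between first and third reads (60 s).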
* = called active by the depositor; ? = inconclusive; / = not tested or not shown; & = joins results of further samples; [ ] = dose if it differs, or a comment. Unless noted, calls come from the whole dose curve; as a rule, active means well fitted rising curve with a large enough effect; inconclusive means small, poorly fitted or top-dose-only effect; inactive means no such curve, though single readings can be large or run the other way. Potency is the fitted concentration of half-maximal effect.

SMILES	RE007 growth inh	Lassa entry inh	SARS PLpro yeast	Cruzain inh Det	2A StopGo	Marburg entry inh	NS1 inh	Cruzain inh noDet
C/C(=N\NC(=O)c1ccncc1)c1cc2ccccc2o1	10%	14%[46.1 µM]	2%	/	14%	-32%[46.1 µM]	2%	/
Cc1ccccc1-n1nc(CO)c(C(=O)NCc2cccnc2)n1	/	27%[46.1 µM]	/	0.5%	-7%	5%[46.1 µM]	/	9%
COC(=O)CN(C(=S)Nc1ccc(Cl)cc1)C1CC(=O)N(c2ccc(OC)cc2)C1=O (stereo not given)	6%	-18%	-14%	-1.3%	7%	14%	12%	-5%
COc1ccc(NS(=O)(=O)c2cc(OC)ccc2NC(=O)c2cc(C)oc2C)cc1	14%	-24%	-4%	-9.7%	0%	?	-5%	9%
COc1ccc(-c2cc(C(=O)Nc3cccc(C(C)=O)c3)no2)cc1OC	/	7%[46.1 µM]	/	-1.5%	-3%	-2%[46.1 µM]	/	-10%
Cc1cc(NC(=O)CCC(=O)N(CCC(C)C)C(C(=O)NC2CCCC2)c2cccnc2)no1 (stereo not given)	-1%	5%	1%	0.5%	-3%	5%&28%	-2%	-2%
CCOC(=O)N1CCN(C(=O)Cn2c(=O)sc3ccccc32)CC1	6%	4%	-4%	2.7%	13%	?	-7%	4%
CCC1(CC)C(=O)NC(=O)NC1=NCCc1ccc(O)cc1	31%	4%	-1%	10%	8%	11%	-2%	5%
COCCOC(=O)c1c(C)oc2ccc(NS(=O)(=O)c3ccc(C(=O)O)cc3)cc12	-8%	13%	0%	-0.7%	10%	0%&1%	0%	-1%
Fc1ccc(Nc2ncnc3onc(-c4ccc(Cl)cc4)c23)cc1Cl	/	-25%[46.1 µM]	/	-12%	?	-13%[46.1 µM]	/	10%
COc1ccc2[nH]c(O)c(NC(C)=O)c2c1	-11%	?	-4%	1.9%	4%	-2%	0%	15%
CCOc1ccc(NC(=O)CC2C(=O)N(c3cccc(OC)c3)C(=O)N2C(C)C)cc1 (stereo not given)	-8%	/	-1%	/	17%	/	-9%	/
CCn1cc(Br)c(C(=O)Nc2cccc(Cl)c2)n1	0%	9%	-16%	-3.0%	18%	2%	-42%	0%
COc1ccc(NC(=O)CSc2cccc3cccnc23)c(OC)c1	-8%	?	9%	-2.7%	-6%	-3%	-7%	-18%
Cc1cccc(NS(=O)(=O)c2ccc3c(c2)CCN3C(=O)C2CCC2)c1	/	?	/	-8.3%	-23%	?	/	-9%
Cc1ccc(Oc2ccccc2/C=C2\SC(=O)N(C)C2=O)cc1	-7%	?	1%	-3.5%	-2%	-6%	-1%	-18%
CCCCC1=CC2=CC(=O)C(C)(OC(=O)c3cccs3)C(=O)C2=CO1 (stereo not given)	-15%	/	/	-1.7%	-16%	/	/	10%
O=C(CSc1nnnn1-c1ccccc1)NC(=O)Nc1ccc2c(c1)OCCO2	7%	9%	-2%	0.1%	45%[activator]	?	1%	-27%
Cc1ccc(-c2nnn(CC(=O)N3CCN(c4ccccc4)CC3)n2)o1	-1%	?	-2%	2.9%	/	8%	4%	-11%
CCOC(=O)/C(C#N)=C1/SC(CCO)C(=O)N1c1ccccc1 (stereo not given)	-4%	-8%	1%	5.8%	-3%	?	-12%	-3%
COc1cc(NC(=O)C2CCCCN2)ccc1OCC(C)C (stereo not given)	3%	2%	1%	-2.7%	-14%	-13%	-3%	0%
c1ccc(C2[C@H]3CN(Cc4cccnc4)[C@H](c4ccccc4)C34CC2(c2ccccc2)C4)cc1 (stereo not given in full)	1%	/	-20%	-7.2%	?	/	-42%	-6%
COc1ccc2c(ccc[n+]2CC(=O)c2ccccc2)c1	3%	/	-7%	/	-7%	/	18%	/
CCN(C(=O)COC(=O)C1=COCCO1)c1c(N)n(Cc2ccccc2)c(=O)[nH]c1=O	-10%	11%	-4%	/	-1%	?	/	/
CC(=O)NN1C(=O)/C(=C\c2ccc(C)cc2)SC1=S	4%	-28%	0%	1.0%	26%	8%	0%	-9%
COc1ccc(-c2cc3c(=O)n(CC(=O)NCCCN4CCC(Cc5ccccc5)CC4)ncn3n2)cc1	-16%	/	?	/	0%	/	-14%	/
CC1(C)Cc2c(sc3c2c(=N)n(Cc2ccco2)c(=O)n3Cc2ccc(Cl)cc2)CO1	12%	?	-5%	-1.2%	0%	?	-61%	-11%
O=C(Nc1ccc(O)cc1)c1ccc(C(=O)c2ccccc2)o1	-1%	?	0%	-3.1%	5%	-5%	-5%	5%
CCc1ccc(NC(=O)C2CCC(CNS(=O)(=O)c3cccs3)CC2)cc1 (stereo not given)	/	14%[46.1 µM]	/	-1.7%	16%	7%[46.1 µM]	/	?
CC(/C=C/c1ccc(N(C)C)cc1)=N\N=C1\NC(=O)CC(C(=O)Nc2ccccc2)S1 (stereo not given)	25%	?	-1%	-8.9%	21%	?	7.9µM*	-23%
CSCCC(Nc1ccc(S(=O)(=O)N2CCOCC2)cc1[N+](=O)[O-])C(=O)OCC(=O)N(C(C)C)C(C)C (stereo not given)	6%	?	0%	-2.0%	0%	-2%&36%	12%	?
Cc1ccc(NC(=S)NCc2ccccc2Cl)c(C)c1	0%	-10%	-29%	-7.5%	9%	1%	-2%	-16%
CCOc1ccc(NC(=O)CN2CCN(Cc3ccccc3)S2(=O)=O)cc1	/	-21%[46.1 µM]	/	-1.5%	10%	/	/	-13%
CC(=O)Nc1cccc(-c2nnc(SCC(=O)c3cc([N+](=O)[O-])ccc3Br)o2)c1	/	0%[46.1 µM]	/	-5.5%	?	?	/	-17%
O=C(COC(=O)Cc1ccc(S(=O)(=O)N2CCOCC2)s1)NCCc1ccccc1	9%	6%	1%	0.3%	/	-11%	-2%	-1%
Cc1cc(Cl)c(S(N)(=O)=O)cc1OCC(=O)NC1CCCCC1	16%	14%	-5%	/	2%	?	21%	/
CCOc1ccc(NC(=NCc2ccc3c(c2)OCO3)SC2CC(=O)N(c3ccc(OCC)cc3)C2=O)cc1 (stereo not given)	2%	-23%	?	3.1%	14%	0%	9%	?
CCCCC(=O)Nc1cc(-c2nc3ncccc3o2)ccc1C	5%	-10%[46.1 µM]	0%	/	-7%	0%[46.1 µM]	4%	/
O=S(=O)(O)c1ccc(NN=Cc2ccccc2O)cc1	-9%	4%[46.1 µM]	/	/	-4%	23%[46.1 µM]	/	/
N#CCCN(Cc1ccccc1)C(=O)Nc1ccccc1	21%	/	0%	/	-11%	/	3%	/
COC(=O)Cn1c(C(=O)N(C)C)cc2c1C[C@H]1CN(C(=O)c3ccccc3)[C@@](Cc3ccc(F)cc3)(C(=O)OC)[C@@H]21	10%	/	/	0.2%	-16%	/	/	?
CCN(CC)S(=O)(=O)c1cccc(-c2nnc(SCC(N)=O)n2CCc2ccccc2)c1	11%	1%	2%	0.0%	8%	1%[46.1 µM]	-3%	?
O=C(/C=C/c1ccccc1)NNC(=O)c1cccc(Cl)c1	1%	1%	6%	5.2%	8%	27%	1%	?
Cc1nc(N)nc(N(C)c2ccccc2)c1Br	2%	?	/	/	6%	?	/	/
C=CCN1C2CCCC1CC(NC(=S)Nc1cccc(OC)c1)C2 (stereo not given)	-12%	/	0%	/	-13%	/	-1%	/
C=CCOc1ccc(/C=C/C(=O)OCC(=O)N(C)CC(=O)Nc2ccc(F)cc2)cc1	-13%	-2%	-2%	/	-9%	18%	/	/
Cc1ccc(S(=O)(=O)CC(=O)N2CCCC2)cc1	8%	0%	-6%	1.4%	-18%	-2%	10%	-14%
CC1=NN(C(C#N)c2ccc(F)cc2)C(C)(C)C1 (stereo not given)	0%	12%	-1%	/	-18%	12%	-3%	/
Cc1ccc(-n2nnnc2CNC(=O)c2ccccc2C)cc1C	/	-11%[46.1 µM]	/	-0.7%	?	/	/	-2%
O=C(NCc1ccc(F)cc1)c1ccc2c(Cl)c3c(nc2c1)CCCC3	/	-1%[46.1 µM]	/	0.0%	-19%	?	/	1%
S=c1[nH]cnc2scc(-c3ccccc3)c12	/	-13%	?	-1.8%	-16%	16%	10%	-3%
COC(=O)c1ccc(C23CC4(C2)[C@H](CN(CC2CCCCC2)[C@@H]4c2ccccc2)C3c2ccc(C(F)(F)F)cc2)cc1 (stereo not given in full)	-13%	/	-3%	-1.4%	-18%	/	12%	-27%
O=C(N/C(=C\c1ccc([N+](=O)[O-])cc1)C(=O)N1CCCCC1)c1ccc(Br)o1	-7%	/	-9%	/	61%[activator]	/	29%	/
COc1ccccc1OCCCC(=O)Nc1nccs1	-12%	/	-1%	/	65%[activator]	/	-5%	/
O=C(Nc1ccccc1C(=O)N/N=C/c1ccco1)c1ccccc1Cl	-10%	-5%	1%	4.7%	3%	-12%	-25%	-5%
O=C(c1ccccc1)N1CCN(C(=O)c2ccccc2Br)CC1	3%	-10%	14%	6.6%	-19%	3%	4%	-5%
CC1CCCC(NC(=O)COC(=O)CN2C(=O)C3CCCCC3C2=O)C1C (stereo not given)	-14%	4%	1%	-10.0%	-3%	?	-1%	-15%
CC1Cc2cc(S(=O)(=O)NCc3ccc(F)cc3)ccc2N1C(=O)C1CCC1 (stereo not given)	/	-5%[46.1 µM]	/	2.5%	-16%	/	/	-5%
Cc1ccc(C)c(NC(=O)Cc2nc(CNCC(C)C)cs2)c1	-26%	0%	-8%	/	0%	7.9µM*	-9%	/
CS(=O)(=O)c1ccc(Cl)c(NC(=O)Cc2c(Cl)cccc2Cl)c1	1%	-9%	0%	/	-1%	-1%[46.1 µM]	/	/
Cc1ccc2c(c1)C(=O)CC(O)(C(F)F)O2 (stereo not given)	-3%	/	5%	/	?	/	-3%	/

Assay outcomes as filed in PubChem BioAssay.
